PrP UTR inh: inhibition of PrP 5' UTR reporter expression; cell-based PrP 5' UTR mRNA reporter, plate reader; inhibition, % (test concentration not listed); 340,000 compounds, 0.35% hits; AID 488862, 2010;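 active means every replicate at 50% or more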;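 further: 0 = median of the neutral control wells; tested in H4 reporter cells; numbers are from one replicate; inactives centre near -14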
Bead autofluor: counter-screen for toxin protease inhibitors: compound fluorescence | compound autofluorescence counterscreen, microsphere flow cytometry; stronger effect = higher value | 360,000 compounds, 3.1% hits | fluorescence intensity (no concentration beside the values) | AID 624483;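 active means at least 3 SD above the mean of all compounds, about 16000 in these data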;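 further: 100 nL of 1 mM stock went into each well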
Starred values were filed as active, the others as inactive. Not all compounds are listed. The share of hits here may be higher or lower than overall.

SMILES | PrP UTR inh | Bead autofluor
C=CC[C@H](CC(=O)N[C@H](CO)Cc1ccccc1)C(=O)N[C@H](COC(=O)[C@@H](CC=C)CC(=O)OC(C)(C)C)Cc1c[nH]c2ccccc12 | -9 | 3909
CCN1C(=O)[C@H]2[C@@H](c3ccc(-c4cc(C(C)=O)cs4)cc3)N3CCC[C@@]3(C(=O)OC)[C@H]2C1=O | -4 | 4221
C=CC[C@H](CC(=O)NCCO)C(=O)NCCOC(=O)[C@@H](CC=C)CC(=O)OC(C)(C)C | 4 | 2939
C/C(=N\Nc1cc(Cl)nc(C)n1)c1ccc(C)cc1 | -15 | 22065*
Cc1cc2c(cc(C(=O)OC(C)C(=O)NCc3ccc(F)cc3)n2C)o1 (configuration not stated) | -29 | 3094
CC1C(=O)C(C)C(c2ccccc2)N(N=O)C1c1ccccc1 (configuration not stated) | -24 | 3576
CC(=O)c1ccc(-c2c(C)cc3oc(=O)cc(-c4ccccc4)c3c2C)cc1 | -22 | 3405
C#CCOCCOCCOCCNc1nc(N2CCN(C(=O)[C@H](C)n3cc(CCC(=O)O)nn3)CC2)nc(N2CCN(C(=O)[C@H](Cc3ccc(O)cc3)n3cc(CCO)nn3)CC2)n1 | -3 | 3921
Oc1ccc(C[C@H]2CNC(=S)N2CC2CCCN2C[C@H](Cc2ccccc2)N2C[C@H](Cc3ccc(O)cc3)N(CCc3ccccc3)C2=S)cc1 (some centres not stated) | 4 | 2945
CC(C)(C)OC(=O)n1cccc1/C=C1\c2ccccc2C(=O)N1c1ccccc1 | -21 | 4156
Cc1ccc(C(=O)Nc2cc(S(=O)(=O)N3CCOCC3)ccc2N2CCCC2)cc1 | -28 | 3709
COc1cc(F)c(C2=CC(=O)C[C@H](c3ccc(F)cc3)C2)cc1F | -20 | 3810
C[C@@H]1NC(=O)OC1c1ccco1 (some centres not stated) | -15 | 3847
S=C1SCCN1Cc1ccccc1 | -46 | 3769
COc1ccc(S(=O)(=O)N(C)C[C@H]2Oc3c(NC(=O)c4ccncc4)cccc3C(=O)N([C@H](C)CO)C[C@@H]2C)cc1 | -28 | 3850
Clc1ccc(CN2CC[C@H]3C=CCc4cccc(c43)C2)cc1 | -1 | 3877
NC(N)=NN=C(c1ccc(F)cc1)c1ccc(C(F)(F)F)cc1 | 36 | 3542
CC(C)(C)OC(=O)C[C@@H]1C/C=C\C[C@@H](CC(=O)NCCO)C(=O)N[C@H](Cc2c[nH]c3ccccc23)COC1=O | -7 | 3861
O=C1CCCC/C=C\C[C@H](CC(=O)N(CCO)Cc2ccccc2)C(=O)NC[C@H](c2ccccc2)O1 | -19 | 3079
COc1cc(C(C)=O)ccc1OCc1cn(CC(=O)c2ccc(O)cc2)nn1 | -9 | 3561

Six successive compounds already listed, for reference:
SMILES | PrP UTR inh | Bead autofluor
COc1ccc(S(=O)(=O)N(C)C[C@H]2Oc3c(NC(=O)c4ccncc4)cccc3C(=O)N([C@H](C)CO)C[C@@H]2C)cc1 | -28 | 3850
Clc1ccc(CN2CC[C@H]3C=CCc4cccc(c43)C2)cc1 | -1 | 3877
NC(N)=NN=C(c1ccc(F)cc1)c1ccc(C(F)(F)F)cc1 | 36 | 3542
CC(C)(C)OC(=O)C[C@@H]1C/C=C\C[C@@H](CC(=O)NCCO)C(=O)N[C@H](Cc2c[nH]c3ccccc23)COC1=O | -7 | 3861
O=C1CCCC/C=C\C[C@H](CC(=O)N(CCO)Cc2ccccc2)C(=O)NC[C@H](c2ccccc2)O1 | -19 | 3079
COc1cc(C(C)=O)ccc1OCc1cn(CC(=O)c2ccc(O)cc2)nn1 | -9 | 3561

Carrying on:
SMILES | PrP UTR inh | Bead autofluor
O=C1C=C(c2cccc(Cl)c2)C[C@@H](c2ccc3c(c2)OCO3)C1 | -14 | 4096
COC(=O)C1=NNC(C(=O)OC)C1c1ccccc1 (configuration not stated) | 7 | 3506
C[C@H](CO)N1C[C@H](C)[C@@H](CN(C)S(=O)(=O)c2cccs2)Oc2c(NC(=O)NC3CCCCC3)cccc2C1=O | -17 | 3755
COC(=O)C1=C(c2ccc(OC)c(OC)c2)C[C@@H]2CC[C@H]1N2C(=O)NC(C)C | -2 | 4203
NS(=O)(=O)c1ccc(NC(=O)c2cccc3cc4ccccc4nc23)cc1 | -40 | 3994
CCN(Cc1ccccc1)c1ccccc1 | -15 | 4804
COc1ccc(-c2sc3cc4c(cc3c2-c2ccc3c(c2)OCCO3)OCO4)cc1 | -26 | 3791
N#Cc1ccc(OCC(=O)OCC(=O)Nc2sccc2C(N)=O)cc1 | -41 | 3162
COc1ccc(SC[C@H](C)CN2CC[C@H](C)CCC2=O)cc1 | -11 | 3640
COC(=O)CCC1(C(N)=O)CCC(=O)c2ccccc21 (configuration not stated) | 4 | 3336
COc1ccc(OC(=O)N2C/C(=C/c3ccccc3)C(=O)/C(=C\c3ccccc3)C2)cc1 | -15 | 4280
COc1cccc(/C=N/NC(=O)c2ccc(-n3cnnn3)cc2)c1 | 3 | 5691
O=C1C=C(c2cc(C(F)(F)F)cc(C(F)(F)F)c2)C[C@@H](c2ccc(Cl)cc2)C1 | -31 | 3966
O=C1C=C(c2cccc3c2sc2ccccc23)C[C@@H](c2ccc(Cl)cc2)C1 | 12 | 3015
CC(=O)CC[N+](C)(C)C | -31 | 3505
CCCCNc1cccc2c1S(=O)(=O)N(CCCC)CC(COCc1ccccc1)O2 (configuration not stated) | -2 | 2886
Cn1cccc1C(=O)NC(=O)COC(=O)c1ccc(S(C)(=O)=O)cc1 | -7 | 3573
O=C(C[C@H]1C/C=C\CCC(=O)OC[C@H]2CCCN2C1=O)NCCO | -5 | 3325
CC(=NNC(=S)N1CCN(C2CCCCCC2)CC1)c1ccccn1 | 18 | 4342
O=C(O)CC(CC(=O)O)n1cccc1 | -9 | 3441
COc1ccc(C=C2SC(=S)NC2=O)c(OC)c1OC | 2 | 2843
NC1=NC(=O)C(c2ccccc2)(c2ccccc2)S1 | 4 | 3870
C[C@H]1COC(=O)[C@H](Cc2ccc(F)cc2)C/C=C\C[C@@H](CC(=O)NCCO)C(=O)N1 | 2 | 3746
CC(C)C[C@@H]1CN=C(N)N1C[C@@H]1CCCN1C[C@H](C)N1C[C@@H](Cc2ccccc2)N(CCc2ccc(Cl)c(Cl)c2)C1=N | -19 | 4504
CCCCN1C(=N)N([C@@H](C)CN2CCC[C@H]2CN2C(N)=NC[C@H]2CC(C)C)C[C@H]1[C@H](C)CC | -7 | 3085
O=C1Cc2cc(S(=O)(=O)N3CCNCC3)ccc2N1 | -39 | 3466
Cc1ccccc1S(=O)(=O)N1C[C@H]2CON(C)[C@H]2C[C@H]1c1cccc(-c2ccccc2)c1 | -16 | 3834
O=C(O)/C(=C\c1cccc(O)c1)c1ccc(S(=O)(=O)N2CCCC2)s1 | -17 | 3914
Nc1cc2c(cc1Br)-c1ccccc1C2=NO | -42 | 3025
CCN1C(=O)[C@@H]2[C@@H](c3ccc(-c4ccc(C(C)=O)cc4)c(OC)c3)N3CCC[C@@]3(C(=O)OC)[C@@H]2C1=O | -1 | 2842

In the list so far, these have a Cl atom.
SMILES | PrP UTR inh | Bead autofluor
C/C(=N\Nc1cc(Cl)nc(C)n1)c1ccc(C)cc1 | -15 | 22065*
Clc1ccc(CN2CC[C@H]3C=CCc4cccc(c43)C2)cc1 | -1 | 3877
O=C1C=C(c2cccc(Cl)c2)C[C@@H](c2ccc3c(c2)OCO3)C1 | -14 | 4096
O=C1C=C(c2cc(C(F)(F)F)cc(C(F)(F)F)c2)C[C@@H](c2ccc(Cl)cc2)C1 | -31 | 3966
O=C1C=C(c2cccc3c2sc2ccccc23)C[C@@H](c2ccc(Cl)cc2)C1 | 12 | 3015
CC(C)C[C@@H]1CN=C(N)N1C[C@@H]1CCCN1C[C@H](C)N1C[C@@H](Cc2ccccc2)N(CCc2ccc(Cl)c(Cl)c2)C1=N | -19 | 4504

Further entries.
SMILES | PrP UTR inh | Bead autofluor
O=C(CSc1cccc2cccnc12)N/N=C/c1ccncc1 | -18 | 3469
CCN1C(=O)[C@@H]2[C@@H](c3ccc(-c4cc(C(C)=O)cs4)cc3)N3CCC[C@@]3(C(=O)OC)[C@@H]2C1=O | -20 | 4084
COc1ccc([C@@H]2CC=C(C(=O)O)[C@H](c3ccc(F)cc3)N2S(=O)(=O)c2ccc(Cl)cc2)cc1 | -18 | 3959
CC(C)=CCC[C@](C)(O[C@@H]1O[C@H](CO[C@@H]2OC[C@@H](O)[C@H](O)[C@H]2O)[C@@H](O)[C@H](O)[C@H]1O)C1CC[C@]2(C)C1[C@H](O)CC1[C@@]3(C)CC[C@H](O[C@@H]4O[C@H](CO)[C@@H](O)[C@H](O)[C@H]4O)C(C)(C)C3CC[C@]12C (some centres not stated) | -8 | 3836
Cc1ccc(OCC(=O)Nc2ccc3c(c2)ncn3C)cc1 | -6 | 2893
Cc1ccccc1[C@@H](NC(=O)OC(C)(C)C)C(=O)OC(C)(C)C | -8 | 3065
Cc1ccnc(SCCn2c(N3CCC(C)CC3)nc3c2c(=O)[nH]c(=O)n3C)n1 | -25 | 5577
C[C@H](NC(=O)c1nc[nH]c1C(=O)N(C)Cc1ccccc1)c1ccccc1 | 0 | 3172
COc1ccc(CCN2C(=O)C=CC2=O)cc1OC | -35 | 3302
OCC(O)C(O)CC1SCCS1 (configuration not stated) | 4 | 4371
C/C(=N\NC(=O)c1nnn(-c2nonc2N)c1-c1ccccc1)c1ccco1 | -3 | 5639
C[C@H]1CN=C(N(C)C)N1CC1CCC(C(C)(C)C)CC1 (some centres not stated) | -3 | 4258
CCOc1ccccc1NC1=C(OC)C(=O)C(Nc2ccccc2OCC)=C(OC)C1=O | -10 | 3574
O=c1oc([C@@H](O)c2ccccc2)cc2ccccc12 | -14 | 4044
COC1C(C)OC(OC2CC(C)(O)Cc3cc4c(c(O)c32)C(=O)c2c(O)cc3c(c2C4=O)OC2OC3(C)C(O)C(N(C)C)C2O)C(OC)C1(C)OC (configuration not stated) | 90* | 4574
CC(C)(C)c1ccc2c(c1)C(c1ccc3c(c1)OCO3)CC(=O)O2 (configuration not stated) | -9 | 3592
CCOC(=O)[C@H]1[C@H]2COc3ccc(Br)cc3[C@@H]2N2C(=O)c3c(C)cc(C)cc3NC(=O)[C@@]12C | -11 | 3496
NC(=O)C1=C(N)c2ccccc2C1c1ccccc1 (configuration not stated) | -5 | 3830
CCOC(=O)C1=C(C)c2ccccc2N(S(=O)(=O)C(F)(F)F)C1C(=O)OCC (configuration not stated) | -33 | 3915
CCOc1ccc(NC(=O)COc2ccc(N3CC(C(N)=O)CC3=O)cc2)cc1 (configuration not stated) | -15 | 2922
Cc1sc2nc(SCC(=O)Nc3ccc(Cl)c(C(=O)O)c3)[nH]c(=O)c2c1C | -52 | 3564
C[C@@H]1COC(=O)[C@@H](CC(=O)OC(C)(C)C)C/C=C\C[C@H](CC(=O)N(CCO)Cc2ccccc2)C(=O)N1 | -11 | 3845
CC(C)NC(=O)N(C)C[C@H]1Oc2c(NS(=O)(=O)c3cn(C)cn3)cccc2C(=O)N([C@H](C)CO)C[C@@H]1C | -49 | 3788
O=C(NCCc1ccccc1)c1cccc(NC(=O)C2CCC2)c1 | -95 | 3417
CC(=O)Oc1cccc(/C=N\NC(=O)C(=O)N/N=C/c2cccc(OC(C)=O)c2)c1 | -9 | 6268
COc1ccc(-c2nn(-c3ccccc3)cc2CNC[C@H]2O[C@@H](n3cnc(C(N)=O)n3)[C@H](O)[C@@H]2O)cc1 | -12 | 2987
Cc1nn(C2CC(O)C(O)C(CO)O2)c(=O)[nH]c1=O (configuration not stated) | -11 | 2837
COc1cc(N2C(=O)C=CC2=O)ccc1N1C(=O)C=CC1=O | -7 | 4156
N#CC(=Cc1ccncc1)c1ccccc1 | -12 | 3596
CCN(CC)c1ccc(/C=N/NC(=O)c2cccc(N3CCCC3=O)c2)cc1 | -17 | 2474
COC(=O)C1=C(c2ccc3ccccc3c2)C[C@@H]2CC[C@H]1N2C(=O)NCCCOC(C)C | -12 | 3062
COc1ccc(S(=O)(=O)N(C)C[C@@H]2Oc3ccc(NC(=O)Nc4c(C)noc4C)cc3C(=O)N([C@H](C)CO)C[C@@H]2C)cc1 | -2 | 3898
COC(=O)C1=C(c2ccc(F)cc2OCc2ccccc2)C[C@@H]2CC[C@H]1N2C(=O)NCc1cccc(OC)c1 | -32 | 3811
C=C1C(=O)C23C(O)C1CCC2C12CCCC(C)(COC(C)=O)C1C(O)C3(O)OC2 (configuration not stated) | -30 | 3054
O=S(=O)(c1ccccc1)N(c1ccccc1)S(=O)(=O)c1ccccc1 | -19 | 4069
O=C1CCCC2=C1C(c1ccsc1)CC(=O)N2c1nnc(SCc2ccccc2)s1 (configuration not stated) | 0 | 5602
CC(C)(C)OC(=O)C[C@H]1C/C=C\C[C@@H](CC(=O)N(CCO)Cc2ccccc2)C(=O)NCCOC1=O | -16 | 3528
CCCCN1C(=N)N([C@@H](CN2CCC[C@H]2CN2C(N)=NC[C@@H]2Cc2ccccc2)C(C)C)C[C@H]1Cc1ccccc1 | -6 | 4891
O=C(Nc1ccc(C(=O)N2CCOCC2)cc1)C1CCC1 | -6 | 3342
O=C(Nc1cc(S(=O)(=O)N2CCCCC2)ccc1Cl)c1ccncc1 | -4 | 3064
CCOC(=O)[C@H]1[C@H]2COc3ccc(Cl)cc3[C@@H]2N2C(=O)CN(Cc3ccc(C)cc3)C(=O)[C@@]12C | -15 | 4218
C/C(=N\NC(=O)c1cccc(S(=O)(=O)N2CCCC2)c1)c1ccncc1 | 17 | 6213
Cc1ccc(C(=O)N2[C@@H]3CN(C)C(=O)[C@@]2(Cc2ccccc2)[C@H]2C(=O)N(Cc4ccccc4)C(=O)[C@@H]32)cc1 | -20 | 4421
Oc1ccc(Cl)cc1Sc1cc(Cl)ccc1O | -11 | 2987
CCOC(=O)c1sc(=S)[nH]c1C | -32 | 3620
COc1cc(OC)cc(C(=O)NNC(=O)c2nn(C)c(=O)c3ccccc23)c1 | -22 | 3715

Screens from PubChem.
